From PubChem BioAssay
UUG fidelity – modulators of start codon recognition fidelity in yeast; S. cerevisiae UUG-firefly luciferase reporter, luminescence/redox ratio; activity score, % at 18.7 µM; 0.13% of 350,000 active; AID 602363;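 active means replicate mean at a twofold rise or more, about +100% in these data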;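 further: firefly luciferase made from a UUG start codon reports start codon fidelity; reporter light over untreated wells divided by growth signal over untreated wells; some hits fall short of that in this replicate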
eIF4H inh – inhibitors of RNA binding by human eIF4H. Q15056. eIF4H fluorescence polarization binding assay. inhibition, % at 35 µM. 0.94% of 290,000 active;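 active means 50% or more with normal probe brightness, or confirmed in later tests; about a fifth of its hits are not listed in these tables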;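 further: calls also rest on retests at 20 µM and on dose response follow-up; 0% = protein and probe with vehicle and 100% = probe without protein; strong numbers were not always called active; many hits fall short of the cut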
MT1-MMP act inh – inhibitors of human MT1-MMP activation; P50281; HT1080 RFP-PRO-GFP cells, GFP/RFP ratio fluorescence, overnight; percent of plate control window, DMSO zero; GFP/RFP ratio change, % at 20 µM; 0.061% of 360,000 active;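 active means GFP/RFP ratio change of at least 30% with cell ATP level not reduced by more than half and red fluorescence within 50% of control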; further: strong numbers were not always called active
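system = RFP-PRO-GFP reporter HT1080 cells | dosing = 20 µM single dose, 1% DMSO | timing = overnight cell settling, then overnight compound exposure, 37 °C, 5% CO2 | read-out basis = GFP/RFP fluorescence ratio | controls = DMSO and RFP-L50D-GFP cell wells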
Rce1 inh – yeast Ras-converting enzyme inhibition | AID 2563 | Q03530 | yeast membranes, quenched prenylated peptide cleavage fluorescence | calls only | 0.27% of 290,000 active;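 active means fall in fluorescence gain of 50% or more versus controls, with final raw signal at or below 3038400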;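 further: plate controls were neutral control wells for no effect and wells lacking membranes for full effect; tested at 10 µM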
CSC inhib – cancer stem cell inhibition; cancer stem cell-like cells viability, luminescence; AID 2717; inhibition, % at 7.5 µM; 1.1% of 300,000 active;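 active means mean at 75% or more and at least half the replicates too; tested in HMLE shEcad cells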;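 further: 0% = median of negative and 100% = median of positive control wells; the first replicate is given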
PABP polyA inh – PABP-poly(A) binding inhibition; AID 2014; inhibition, % at 35 µM; PABP-poly(A) RNA binding, fluorescence polarization; P11940; 1% of 290,000 active;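 active means 50% or more with normal probe brightness, or confirmed in later tests; about a fifth of its hits are not listed in these tables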;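 further: calls also rest on retests at 20 µM and on dose response follow-up; controls were probe without protein and protein plus probe with vehicle; some compounds called inactive have numbers as strong as hits; many hits fall short of the cut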
Target sequence (P11940 whole entry, looked up): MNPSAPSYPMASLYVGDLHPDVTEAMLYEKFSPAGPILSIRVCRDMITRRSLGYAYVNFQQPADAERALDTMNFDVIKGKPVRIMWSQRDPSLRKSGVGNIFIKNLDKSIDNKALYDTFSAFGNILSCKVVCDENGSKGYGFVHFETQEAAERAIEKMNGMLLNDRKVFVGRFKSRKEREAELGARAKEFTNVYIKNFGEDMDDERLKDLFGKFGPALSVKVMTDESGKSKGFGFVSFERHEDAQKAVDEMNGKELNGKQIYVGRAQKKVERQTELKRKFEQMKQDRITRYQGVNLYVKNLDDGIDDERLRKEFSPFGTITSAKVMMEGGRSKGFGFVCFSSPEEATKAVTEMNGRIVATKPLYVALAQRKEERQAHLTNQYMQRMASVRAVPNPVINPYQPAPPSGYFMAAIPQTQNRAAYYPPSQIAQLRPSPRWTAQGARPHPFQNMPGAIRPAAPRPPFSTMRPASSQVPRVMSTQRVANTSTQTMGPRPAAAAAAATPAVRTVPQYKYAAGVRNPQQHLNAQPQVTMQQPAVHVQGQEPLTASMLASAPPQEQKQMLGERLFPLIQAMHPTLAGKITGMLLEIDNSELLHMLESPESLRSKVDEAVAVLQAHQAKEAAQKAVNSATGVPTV
Env fusion inh – blocks HIV Env-driven cell-cell fusion | AID 651610 | 1.1% of 360,000 active | inhibition, % at 12.3 µM | HeLa-JRFL Env/CEM21 cell fusion, luciferase;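 active means mean replicate inhibition score of at least 50 and every replicate individually at or above 50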;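 further: 0% = plate neutral controls and 100% = maraviroc near 300 nM; one replicate is shown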
eIF4H inh retest – further read-out of eIF4H inh, marked with its call; inhibition, %; compound at 20 µM; confirmation average;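 mean of two retest wells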
PABP polyA inh retest – also measured in PABP polyA inh; calls as there; inhibition, %; compound at 20 µM; confirmation repeats;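 mean of two retest wells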
MT1-MMP act inh RFP – second read-out of MT1-MMP act inh, no call of its own (marks repeat the call); RFP signal change, %; measured here: RFP expression control read;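 0 = vehicle wells; hits needed this value within 50% of zero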
An asterisk follows results filed as active; i = inactive; / = not tested or not shown; & = joins results of further samples. Not all compounds are listed, so the mix of outcomes need not match the whole.

SMILES	UUG fidelity	eIF4H inh	MT1-MMP act inh	MT1-MMP act inh RFP	Rce1 inh	CSC inhib	PABP polyA inh	Env fusion inh	others
C=CCn1c(C2CCCCC2)n[nH]c1=S	-12	-1	-3	0	i	-8	2	-5
Cc1ccc(OCc2n[nH]c(=S)n2-c2ccc(Br)cc2)cc1	-13	4	4	1	i	-11	0	10
CCOC(=O)C1(CC2CC2)CCN(Cc2ccc(OC)cc2F)CC1	/	89*	4	4	i	3	76	3	eIF4H inh retest=77*;PABP polyA inh retest=42
Cn1c(=O)[nH]c(=O)c2c1nc(Br)n2CCC(=O)c1ccccc1	0	-2	4	0	i	-4	3	16
CC1CC2=C(C(=O)O1)C(c1ccc(Cl)cc1)Nc1ccccc1N2 (stereo unspecified)	/	-3	1	3	i	3	5	/
O=C(CCOc1ccccc1)Nc1cccc([N+](=O)[O-])c1	0	-2	2	4	i	-18	-1	5
CCN(CC)S(=O)(=O)c1cccc(C(=O)N/N=C/c2cc(OC)c(O)c(OC)c2)c1	/	6	6	4	i	1	0	-3
O=C(c1ccc2ccccc2n1)N1CCN(c2ccccn2)CC1	-5	3	6	6	i	6	11	-155
COc1ccc(OCC(=O)NCCCNC(=O)COc2ccc(OC)cc2)cc1	0	/	3	0	/	/	/	-3
CC(=O)Nc1cccc(NS(=O)(=O)c2c(C)noc2C)c1	6	/	2	1	/	4	/	/
C#CCOC(=O)c1ccccc1C(=O)OCC#C	-21	2	-5	1	/	2	-9	/
CCN(Cc1ccc(N(C)C)cc1)C(C)C(=O)Nc1ccc(S(=O)(=O)N2CCCC2)cc1 (stereo unspecified)	0	/	1	4	/	-11	/	/
O=C(COc1ccc2c3c(c(=O)oc2c1)CCC3)c1ccc2c(c1)OCO2	-16	-6	-4	1	i	5	2	-42
CCc1ccc(-c2nc(CS(=O)CC(=O)NCc3ccc4c(c3)OCO4)c(C)o2)cc1 (stereo unspecified)	-11	-13	-4	1	i	32	1	3
Cc1ccc(S(=O)(=O)N(CC(=O)NCc2ccncc2)Cc2ccccc2F)cc1	0	-5	-4	-1	i	-13	-3	14
CC(=O)c1c(C)[nH]c(C(=O)COC(=O)c2cccs2)c1C	1	/	-1	1	/	-12	/	-18
COc1cc(C2c3c(-c4cc(Cl)c(C)cc4O)n[nH]c3C(=O)N2Cc2cccnc2)ccc1O (stereo unspecified)	-24	4	-1	-4	i	-8	-8	-35
CC1CCc2sc(C(=O)NNS(=O)(=O)c3ccc(F)c(F)c3F)cc2C1 (stereo unspecified)	-3	/	-3	7	i	11	/	7
O=S(=O)(NCc1ccccc1)c1ccc(S(=O)(=O)N2CCCCC2)cc1	-14	5	1	-1	i	-3	-3	3
CCOC(=O)C1CCN(C(=O)c2ccccc2N(C)S(C)(=O)=O)CC1	-2	-4	-6	-1	i	6	0	-36
COc1ccc(N2CCN(c3ccc([N+](=O)[O-])cc3Cl)CC2)cc1	-18	-4	-3	-4	i	4	0	19
Cc1ccc(N(CC(=O)Nc2ccc(F)cc2)S(=O)(=O)N2CCCC2)cc1	-11	-16	1	3	i	4	-2	-48
O=C(CSc1ncccn1)NC(=O)Cc1ccccc1	9	/	0	2	/	/	/	-8
O=C(O)CCC(=O)N1CCc2cc(S(=O)(=O)N3CCN(c4ccc(F)cc4)CC3)ccc21	-5	0	1	6	i	-2	-3	2
CCC(C)(C(=O)NC1CCCCC1)N(C(=O)CNC(=O)c1ccccc1)c1c(C)n(C)n(-c2ccccc2)c1=O (stereo unspecified)	/	5	1	3	i	-13	-10	-8
C/C=C(\C)c1nnc(NC(=O)C(C)C)s1	-9	-14	-4	3	i	-2	-7	/
CCOC(=O)c1c(S(=O)(=O)NCC(=O)N2CCN(c3cccc(OC)c3)CC2)c(C)n(C)c1C	-6	-6	-2	-2	i	-7	3	18
COc1ccc(C)cc1NC(=O)CSc1nnc(-c2ccco2)n1N	-8	-7	-2	0	i	-15	-4	26
COC(=O)C(C)Sc1nc2ccsc2c(=O)n1Cc1ccccc1 (stereo unspecified)	-9	-9	0	3	i	6	4	2
CCOc1cc(/C=N\Nc2nc(-c3ccc(C)cc3)c(NC(C)=O)s2)ccc1O	/	1	2	0	i	22	-5	-4
CN(CCO)c1ccc([N+](=O)[O-])cc1C(=O)O	0	-6	-3	6	i	7	-6	/
CCOn1c(SCC)nc2ccccc2c1=O	-4	-5	0	1	i	-8	-3	-6
COc1ccc(NS(=O)(=O)c2cc(C)ccc2NC(=O)c2cc(C)oc2C)cc1	6	9	6	-7	i	3	5	/
O=C(OCc1nc2ccccc2s1)c1cc2ccccc2oc1=O	/	3	/	/	i	-2	4	-72
O=C(NC(Cc1ccccc1)C(=O)O)/C(=C/c1ccc([N+](=O)[O-])cc1)NC(=O)c1ccccc1 (stereo unspecified)	-12	-7	-3	-1	/	6	-6	8
Cc1ccc(OCCNC(=O)[C@H]2O[C@@H](n3ccc(=O)[nH]c3=O)[C@H](O)[C@@H]2O)cc1C	-11	/	1	4	/	/	/	-3
Cc1cc2ccccc2c(=O)n1CC(=O)NCC(=O)N1CCN(c2cccc(Cl)c2)CC1	-4	-3	4	-1	i	-5	-3	38
c1ccc(CSc2ncnc3c2cnn3-c2ccccc2)cc1	-4	1	6	6	i	23	4	-32
CSC1=NCCN1S(=O)(=O)c1ccc(F)cc1	/	-9	0	4	i	-13	2	-4
CCN(Cc1ccccc1)C(=O)CN1C(=O)c2ccccc2C1=O	-6	4	-15	-7	i	-5	10	-36
COc1cccc(-n2c(-c3ccco3)nc3nc4ccccc4nc32)c1	/	103	-9	7	i	-5	21	-5	eIF4H inh retest=17;PABP polyA inh retest=0
COC(=O)c1nnn(-c2ccc(Cl)c(Cl)c2)c1C(=O)OC	/	-5	4	-1	i	-20	11	-16
CCc1ccc(NC2=NC(C(=O)NC3CCCCC3)CC(=O)N2)cc1 (stereo unspecified)	-11	-8	-4	2	i	-2	-6	-9
CC(C)Nc1ncnc2c1cnn2Cc1ccc(Cl)cc1	-16	-3	2	-1	i	9	-4	37
CC1Sc2ccc(Cl)cc2-c2nc(N)ncc21 (stereo unspecified)	/	-8	-11	-7	i	/	10	18
CC(C)(C)n1cnc2cc(NC(=O)c3ccc(Cl)cc3)ccc21	-27	-3	1	-2	i	-14	-3	-142
Cc1ccc(C(=O)Nc2nnc(Cc3ccccc3)s2)cc1	-6	2	4	4	i	-1	-3	10
CCOC(=O)c1ccc(N2C(=O)CC(N(C)Cc3ccccc3)C2=O)cc1 (stereo unspecified)	-16	-2	2	6	i	/	-14	/
CCOC(=O)c1cc(C(=O)OCC)c2cc(Br)ccc2n1	-1	-2	5	1	i	-13	-6	-16
Cc1ccc(C(=O)N/N=C\c2c(C)nn(-c3ccccc3)c2Cl)cn1	/	6	-6	-2	i	-1	-8	/

Looked up by compound from the list above (2):
SMILES	UUG fidelity	eIF4H inh	MT1-MMP act inh	MT1-MMP act inh RFP	Rce1 inh	CSC inhib	PABP polyA inh	Env fusion inh	others
CCN(CC)S(=O)(=O)c1cccc(C(=O)N/N=C/c2cc(OC)c(O)c(OC)c2)c1	/	6	6	4	i	1	0	-3
Cc1ccc(C(=O)Nc2nnc(Cc3ccccc3)s2)cc1	-6	2	4	4	i	-1	-3	10

Later entries
SMILES	UUG fidelity	eIF4H inh	MT1-MMP act inh	MT1-MMP act inh RFP	Rce1 inh	CSC inhib	PABP polyA inh	Env fusion inh	others
O=C(CN1C(=O)c2ccccc2C1=O)Nc1cccc(S(=O)(=O)Nc2ccccc2Cl)c1	/	91	/	/	i	8	0	9	eIF4H inh retest=48;PABP polyA inh retest=-8
COc1cccc(-c2cc(C(F)(F)F)nc(N3CCOCC3)n2)c1	-10	-13	6	-2	i	-1	1	-18
CC(CC(=O)NC1CCCC1)c1ccccc1 (stereo unspecified)	-9	-6	-5	2	i	5	50*	-3
CCCCNC(=O)n1c(SC)nc2ccccc21	-27	2	12	1	i	-13	-3	-21
O=C(CSc1nc2ccccc2s1)NNC(=O)Nc1ccc(Cl)c(Cl)c1	-26	1	-5	-2	i	6	-13	/
COc1ccc(CNC(=O)C(C)Sc2ccc(C)cc2)cc1 (stereo unspecified)	/	-10	1	4	i	-9	3	-7
c1ccc2cc3c(NCCN4CCOCC4)ccnc3cc2c1	/	72	18	17	/	/	2	-231	eIF4H inh retest=-3;PABP polyA inh retest=-1
COC(=O)c1ccc(CNC(=O)COC(=O)CC23CC4CC(CC(Br)(C4)C2)C3)cc1	/	5	4	5	i	-10	3	26
COc1ccc(S(=O)(=O)Cc2ccc(C(=O)N3CCN(c4cccc(C)c4C)CC3)o2)cc1	-21	-6	0	4	i	72	3	-14
CCCSC(=O)N(CC)CC(=O)Nc1c(CC)cccc1CC	-10	1	0	4	i	-4	6	/

Next part (2 carried over from the part before).
SMILES	UUG fidelity	eIF4H inh	MT1-MMP act inh	MT1-MMP act inh RFP	Rce1 inh	CSC inhib	PABP polyA inh	Env fusion inh	others
COc1ccc(S(=O)(=O)Cc2ccc(C(=O)N3CCN(c4cccc(C)c4C)CC3)o2)cc1	-21	-6	0	4	i	72	3	-14
CCCSC(=O)N(CC)CC(=O)Nc1c(CC)cccc1CC	-10	1	0	4	i	-4	6	/
O=C1CCCC(O)=C1Sc1ccccc1C(=O)O	9	87*	2	6	i	-5	51	0	eIF4H inh retest=59*;PABP polyA inh retest=41
COc1cc([N+](=O)[O-])ccc1NC(=O)C1CCCN(S(C)(=O)=O)C1 (stereo unspecified)	-10	/	-6	-1	/	/	/	2
CC1(NC(=O)c2cc(S(=O)(=O)N3CCCCC3)ccc2Cl)CCS(=O)(=O)C1 (stereo unspecified)	-15	-4	2	6	i	-1	-8	-84
COC(=O)c1ccsc1NC(=O)CCS(=O)(=O)c1ccccc1	-7	-4	-1	2	i	3	3	24
CC1CCCN(CC(=O)Nc2ccc(S(=O)(=O)N3CCCCC3)cc2)C1 (stereo unspecified)	-12	3	1	0	i	30	8	-23
COc1ccccc1OCCCCCNCCO	-30	4	6	4	/	-17	8	/
COc1ccc(S(=O)(=O)Cc2ccc(C(=O)NCc3ccccc3OC)o2)cc1	-18	-15	5	2	i	-3	0	8
COc1cc(C2NC(=O)NC(C)=C2C(=O)OCc2ccccc2)ccc1O (stereo unspecified)	/	-2	0	2	i	-2	-2	/
CCOC(=O)/C(=C/c1ccccc1)NC(=O)c1ccco1	0	-6	-1	0	i	-4	-8	-2
O=C(O)CSc1cccc2cccnc12	-24&-4	1&8	-2&-2	7&2	i	-11&-13	6&2	16&-38
Cn1c(=O)c2cc(NC(=O)Nc3cccnc3)ccc2n1Cc1cccc(C(F)(F)F)c1	-16	/	1	-4	/	/	/	7
CCOc1cc(C(=O)Nc2c3c(nn2C(C)(C)C)CS(=O)C3)cc(OCC)c1OCC (stereo unspecified)	-9	-5	0	1	i	/	-6	/
Cc1ccc(-n2c3nc(=O)[nH]c(=O)c-3cc3cc([N+](=O)[O-])ccc32)cc1	-13	5	7	-9	i	8	-6	9
O=C(CSCc1ccc([N+](=O)[O-])cc1)NC1CC2CCC1C2 (stereo unspecified)	-18	0	2	1	i	0	2	16
CN(C)/C=N/c1ncc(C(=O)c2ccc(-c3ccccc3)cc2)s1	/	3	-1	-13	i	4	-6	6
Cc1cccc(OC(C)C(=O)N2CCN(Cc3ccc4c(c3)OCO4)CC2)c1 (stereo unspecified)	-15	-2	2	-2	i	36	-10	1
CCOc1ccccc1NC(=O)CN(c1ccc(OC)cc1OC)S(=O)(=O)c1ccccc1[N+](=O)[O-]	-4	7	0	-3	i	19	1	19
Cc1cc(C)n(C(=O)COc2ccc([N+](=O)[O-])cc2)n1	-12	-9	-6	0	i	13	-3	19
Cc1noc(C)c1CSCC(=O)N(C)CC(=O)Nc1ccc(F)c(F)c1F	-12	/	-2	-2	i	-12	/	12
Cc1cccc(OCc2nc3ccccc3n2C)c1	-22	-14	1	1	i	-2	-7	-67
